# High-throughput results deposited in PubChem BioAssay by National Center for Advancing Translational Sciences (NCATS).
# Six1-Eya2 inh = inhibitors of human Six1/Eya2 interaction; AID 651725; Q15475+O00167; activity change, % (no concentration beside the values); 360,000 tested, 0.56% active; AlphaScreen GST-Six1/His-Eya2 binding, biochemical; hits give low values; control for the full effect not named in the record; in the data active = activity change below about -65%; inconclusive = about -30% to -65%; inactive = above about -30%; also: % is scaled to controls: 0 for no effect and ±100 for the full control effect; compound concentration not given in the record
#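 GST-Six1 + His-Eya2 (5X stock: 250/500 nM); Tris pH 8.0, 300 mM NaCl, 0.05% BSA, 0.02% Tween 20; GSH donor/Ni acceptor beads; 1 h 37 °C dark; AlphaScreen readout.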
# TRPML1 blocker = inhibitors of human TRPML1 channel; activity change, negative = inhibition, % (test concentration not listed); 390,000 tested, 0.02% active; Q9GZU1; TRPML1-inducible cells, Ca2+ dye fluorescence, FDSS; hits give low values; inhibition of EC80 agonist-evoked calcium signal; AID 624415; in the data active means activity change below about -50%; inconclusive means about -30% to -50%; inactive means above about -30%;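 also: stimulus is agonist 54-4 at its EC80 concentration; % is scaled to controls: 0 for no effect and ±100 for the full control effect; compound concentration not given in the record; the text of the record puts the active cut at -80%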
# Target sequence (Q9GZU1 whole entry, looked up): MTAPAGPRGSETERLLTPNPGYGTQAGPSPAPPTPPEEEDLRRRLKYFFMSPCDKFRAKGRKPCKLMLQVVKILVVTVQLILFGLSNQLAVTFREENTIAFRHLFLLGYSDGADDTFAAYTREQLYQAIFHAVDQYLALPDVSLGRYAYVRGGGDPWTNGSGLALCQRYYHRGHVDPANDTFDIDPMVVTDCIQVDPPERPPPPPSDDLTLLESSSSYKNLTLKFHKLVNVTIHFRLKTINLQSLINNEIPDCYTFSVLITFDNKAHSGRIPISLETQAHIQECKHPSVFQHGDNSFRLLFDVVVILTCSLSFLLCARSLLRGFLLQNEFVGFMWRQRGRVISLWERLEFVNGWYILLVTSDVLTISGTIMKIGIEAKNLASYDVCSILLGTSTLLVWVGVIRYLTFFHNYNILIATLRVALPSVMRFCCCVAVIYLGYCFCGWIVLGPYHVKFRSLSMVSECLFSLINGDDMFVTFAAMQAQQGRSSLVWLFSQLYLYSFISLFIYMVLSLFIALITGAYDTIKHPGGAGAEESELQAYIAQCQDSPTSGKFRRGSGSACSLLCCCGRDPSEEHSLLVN
#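 Tet-induced TRPML1-DL cells loaded with Ca8 no-wash calcium dye were read kinetically on FDSS. Compound addition was followed by EC80 agonist 54-4 (4 uM final); inhibition was read over 110 s.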
# CtBP-E1A inh = blocks the CtBP interaction with E1A; AlphaScreen GST-E1A/His-CtBP binding, 1536-well; hits give low values; control for the full effect not named in the record; activity change, % (concentration not given with the values); 340,000 tested, 0.49% active; AID 651724; in the data active means activity change below about -65%; inconclusive means about -30% to -65%; inactive means above about -30%; also: % is scaled to controls: 0 for no effect and ±100 for the full control effect
#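 GST-E1A and His-tagged CtBP (125 nM each as 5X stock) were preincubated with pin-transferred compound for 2 h at 37 °C in the dark, then glutathione donor and nickel acceptor beads were added for 1 h before AlphaScreen reading.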
# D2 ag = activates the human D2 dopamine receptor; P14416; DiscoveRx PathHunter D2 beta-arrestin, luminescence, 90 min; 100% = 57 uM dopamine signal; activation, % (no concentration beside the values); 360,000 tested, 0.084% active; AID 624465; in the data active = activation above about 40%; inconclusive = about 15% to 40%; inactive = below about 15%; also: compound concentration not given in the record; the text of the record calls up to 30% inactive
#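 Agonist mode: compounds alone added to overnight-plated D2 PathHunter cells for 90 min at 37 C, with 57 uM final dopamine (EC100) defining full response. Beta-arrestin recruitment detected by chemiluminescent reagent, read after 1 h at ambient temperature.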
# TRPML1 agonist = agonists of human TRPML1 channel; activation, % (test concentration not listed); 410,000 tested, 0.12% active; Q9GZU1; TRPML1-expressing cells, Ca2+ dye fluorescence, FDSS; host cell line not named in the record; reference of the full effect not given here; in the data active = activation above about 50%; inconclusive = about 30% to 50%; inactive = below about 30%; also: 0% is about no effect; the text of the record puts the active cut at 80%
#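 Calcium fluorescence on an FDSS kinetic reader gave the read-out. Tet-induced TRPML1-DL cells were plated overnight, dye-loaded (Ca8 with quencher, 45-90 min, room temperature, dark), then read 110 s after compound addition, and again 110 s after 4uM final 54-4 (EC80).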
# PINK1 modulator = PINK1 expression modulation; PINK1 immunofluorescence, high-content cytometry, 24 h; Potency, µM (highest dose often 76.6 µM), without a hit: at the highest dose activation (PINK1 increase), hits mostly activators; 410,000 tested, 0.2% active; AID 624263; active = well fitted activation curve with a large enough effect; inconclusive = small, poorly fitted or top-dose-only effect; inactive = flat fitted curve, though single readings scatter; cell line not stated here;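 also: potency is read from the fitted curve at half-maximal effect; % of control where 0% means no effect; nearly all actives have a fitted effect of over 65% in size; a mitochondrial uncoupler was the plate control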
#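 Cells are seeded, rested 12 hours, then given compound at five concentrations or DMSO for 24 hours. After fixation, blocking and antibody staining, PINK1 amount and mitochondrial localization are scored; CCCP serves as control.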
# An asterisk follows results filed as active; ? = inconclusive; . = not tested or not shown; [ ] = another dose, or the depositor's remark. The list is partial; rates above refer to the full screens.
item	mol	CtBP-E1A inh	PINK1 modulator	TRPML1 blocker
1	CN1C2CCC1CC(OC(=O)CCN1CCCC1)C2 (stereo not drawn)	4.8	-3.9%[38.3 µM]	42.0
2	COc1ccc2c(c1)NP(=S)(c1ccccc1)N2 (stereo not drawn)	-19.4	0.4%	5.5
3	CCOC(=O)Cn1cc(C=C2C(=O)N(C)C(=O)N(C)C2=O)c2ccccc21	9.2	0.2%	-13.3
4	Cc1cccc(N=Cc2c(O)n(C)c(=O)n(C)c2=O)c1	-1.0	-0.5%	36.5
5	COC(=O)C1=C(c2ccc3ccccc3c2)C[C@@H]2CC[C@H]1N2C	-29.0	-0.3%	18.5
6	CCc1c(C)nc(N)nc1N1N=C1SCC(=O)OC	-13.9	1.4%	-12.8
7	COc1cccc(CN2CCNCC2)c1	4.6	1.2%	-7.1
8	COc1ccc(-n2nnnc2C(c2cc3ccccc3o2)N2CCC(n3c(=O)[nH]c4ccccc43)CC2)cc1 (stereo not drawn)	-12.6	1.7%	-14.1

item	TRPML1 agonist	Six1-Eya2 inh	D2 ag
1	2.1	-1.1	-2.6
2	3.2	-15.5	-1.1
3	0.6	6.3	-2.1
4	-0.9	-10.8	0.0
5	0.6	29.4	-0.8
6	0.7	8.0	-1.6
7	0.1	-1.4	-4.6
8	1.1	-10.7	9.6

# (more compounds)
item	mol	CtBP-E1A inh	PINK1 modulator	TRPML1 blocker
9	Cc1ccc(S(=O)(=O)N2CC2(C)CCl)cc1 (stereo not drawn)	-24.6	0.1%	-20.1
10	CC#CP(=O)(OCC)C(O)(c1ccccc1)C(F)(F)F (stereo not drawn)	12.3	0.6%	10.8
11	CCN(CC)c1ccc(N=Cc2c(O)n(CCC3=CCCCC3)c(=O)[nH]c2=O)cc1	-8.1	?	10.1
12	CCn1c(C)cc(/C=C2\C(=O)NC(=O)N(c3ccccc3C)C2=O)c1C	9.3	0.7%	14.9
13	CCOc1ccc(N2C(=O)/C(=C/c3ccco3)C(=O)NC2=S)cc1	.	1.9%	5.3
14	CNS(=O)(=O)c1ccc(N=Cc2c(O)n(-c3ccc(C)cc3)c(=O)[nH]c2=O)cc1	0.0	-1.3%	10.6
15	O=c1[nH]c(O)c(N=Nc2cc(C(F)(F)F)ccc2Cl)c(=O)[nH]1	?	1.2%	1.7
16	Brc1ccc2c(c1)C(OC1CN3CCC1CC3)c1ccccc1CS2 (stereo not drawn)	-9.8	-2.2%	-12.5

item	TRPML1 agonist	Six1-Eya2 inh	D2 ag
9	0.0	0.7	-2.8
10	-1.0	13.7	1.1
11	2.7	2.2	1.5
12	0.0	0.4	-3.6
13	-0.5	-81.0*	0.5
14	1.8	14.8	-0.4
15	5.6	-26.8	-4.4
16	0.4	-13.7	-5.0

# Next entries follow.
item	mol	CtBP-E1A inh	PINK1 modulator	TRPML1 blocker
17	Cc1c2cnn(CC(=O)N3CCC4(CC3)OCCO4)c(=O)c2c(C)n1Cc1ccccc1	2.9	-0.9%	4.7
18	O=C(c1ccc(C(F)(F)F)cc1)C1CCCN(C2CCSCC2)C1 (stereo not drawn)	0.9	17.6%	5.7
19	N=C1c2ccccc2CN1NC(=O)c1ccco1	-9.1	-1.0%	-2.4
20	O=C1c2ccccc2C(=O)N1Cc1nc2ccccc2c(=O)n1-c1cccnc1	0.0	4.4%	15.7
21	O=c1cccc2n1CC1CC2CN(C(c2ccccc2)c2sc3ncnn3c2O)C1 (stereo not drawn)	-2.1	-0.4%	-1.1
22	CN1C(=O)N(C)C(=O)C2(Cc3cc(NC(=O)c4ccccc4)ccc3N3CCCC32)C1=O (stereo not drawn)	-4.9	-0.8%	17.6
23	Cc1cc(/C=C2\C(=O)NC(=O)N(c3ccc(Br)cc3)C2=O)c(C)n1C	.	16.3%	13.6
24	Cc1c(C(=O)N2CCC3(CC2)OCCO3)sc2ncnc(N3CCN(c4ccccn4)CC3)c12	7.9	.	9.3

item	TRPML1 agonist	Six1-Eya2 inh	D2 ag
17	-1.2	-1.2	-3.4
18	0.8	-6.1	-5.2
19	0.5	3.8	-3.1
20	1.2	22.6	-3.0
21	-0.5	3.2	-1.7
22	0.8	-0.2	-3.0
23	1.3	5.0	-4.4
24	0.3	0.5	0.0

# Following part.
item	mol	CtBP-E1A inh	PINK1 modulator	TRPML1 blocker
25	CCCC(=O)NC(Oc1ccccc1Cl)C(Cl)(Cl)Cl (stereo not drawn)	8.7	.	-1.5
26	COc1ccccc1CC1/C(=N/O)C2CCN1CC2 (stereo not drawn)	6.2	5.6%[38.3 µM]	-2.3
27	COc1ccc(S(=O)(=O)NC(CC(=O)N2CCC3(CC2)OCCO3)C(C)C)cc1 (stereo not drawn)	4.9	.	-4.1
28	CCN1CCN(C(=O)COc2ccc(S(=O)(=O)N(C)Cc3ccccc3)cc2)CC1	1.0	-4.5%[38.3 µM]	1.2
29	O=C(CNC(=O)OCc1ccccc1)Nc1ccc(Br)cc1C(=O)c1ccccc1	-6.7	1.5%	14.3
30	O=c1[nH]c(=O)n(Cc2ccco2)c(O)c1C=NC1CCN(Cc2ccccc2)CC1	0.0	-2.0%	-1.1
31	O=C1NC(=O)C(=Cc2ccc3ccccc3c2)C(=O)N1	.	1.6%	-8.8
32	COC(=O)C1=C(c2ccc3ccccc3c2)C[C@@H]2CC[C@H]1N2C(=O)N1CCC(O)CC1	.	-0.7%	-18.1

item	TRPML1 agonist	Six1-Eya2 inh	D2 ag
25	-0.5	6.5	1.1
26	0.9	4.2	1.0
27	0.5	2.9	-2.9
28	0.5	0.7	-0.6
29	4.3	-11.4	0.7
30	1.2	20.0	-1.8
31	-0.1	16.7	-9.0
32	0.0	0.4	-3.6

# New compounds follow:
item	mol	CtBP-E1A inh	PINK1 modulator	TRPML1 blocker
33	CC1(C)C(c2ccccc2)=NC(c2cccnc2)N1O (stereo not drawn)	36.9	-1.6%[38.3 µM]	-0.9
34	CC(C)(C)N1Cc2ccccc2C1=N	1.3	-0.9%	-13.2
35	CC(C)(C)n1cc(C(=O)c2ccccc2OCCCF)cn1	-2.1	0.4%	-15.5
36	COC(=O)C1=C(c2ccc(OCc3ccccc3)cc2)C[C@@H]2CC[C@H]1N2C(=O)NCCCCc1ccccc1	-5.0	1.0%	-16.2
37	Cc1ccc2c(c1)C1C[N+](C)(CC(=O)c3ccc(Cl)cc3Cl)CCC1N2C(=O)c1ccc(F)cc1 (stereo not drawn)	-9.0	3.0%	-5.3

item	TRPML1 agonist	Six1-Eya2 inh	D2 ag
33	0.0	0.0	-1.4
34	0.3	25.3	-0.7
35	-0.5	1.5	-2.9
36	5.4	-6.1	-11.4
37	-0.4	-14.4	-1.3

# Arranged by SMILES length (rising): 10 of the compounds above
item	mol	CtBP-E1A inh	PINK1 modulator	TRPML1 blocker
34	CC(C)(C)N1Cc2ccccc2C1=N	1.3	-0.9%	-13.2
26	COc1ccccc1CC1/C(=N/O)C2CCN1CC2 (stereo not drawn)	6.2	5.6%[38.3 µM]	-2.3
33	CC1(C)C(c2ccccc2)=NC(c2cccnc2)N1O (stereo not drawn)	36.9	-1.6%[38.3 µM]	-0.9
35	CC(C)(C)n1cc(C(=O)c2ccccc2OCCCF)cn1	-2.1	0.4%	-15.5
31	O=C1NC(=O)C(=Cc2ccc3ccccc3c2)C(=O)N1	.	1.6%	-8.8
29	O=C(CNC(=O)OCc1ccccc1)Nc1ccc(Br)cc1C(=O)c1ccccc1	-6.7	1.5%	14.3
28	CCN1CCN(C(=O)COc2ccc(S(=O)(=O)N(C)Cc3ccccc3)cc2)CC1	1.0	-4.5%[38.3 µM]	1.2
27	COc1ccc(S(=O)(=O)NC(CC(=O)N2CCC3(CC2)OCCO3)C(C)C)cc1 (stereo not drawn)	4.9	.	-4.1
32	COC(=O)C1=C(c2ccc3ccccc3c2)C[C@@H]2CC[C@H]1N2C(=O)N1CCC(O)CC1	.	-0.7%	-18.1
36	COC(=O)C1=C(c2ccc(OCc3ccccc3)cc2)C[C@@H]2CC[C@H]1N2C(=O)NCCCCc1ccccc1	-5.0	1.0%	-16.2

item	TRPML1 agonist	Six1-Eya2 inh	D2 ag
34	0.3	25.3	-0.7
26	0.9	4.2	1.0
33	0.0	0.0	-1.4
35	-0.5	1.5	-2.9
31	-0.1	16.7	-9.0
29	4.3	-11.4	0.7
28	0.5	0.7	-0.6
27	0.5	2.9	-2.9
32	0.0	0.4	-3.6
36	5.4	-6.1	-11.4
